# Screens as filed in PubChem BioAssay.
# RecA splice inh = inhibitors of M. tuberculosis RecA intein splicing; cell-free RecA intein splicing, fluorescence; P9WHJ3; inhibition, %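 (about 9 µM by stock and volumes)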; actives 0.75% (n = 290,000); in the data active = inhibition above about 30%; inconclusive = no clear call, values can overlap the other calls;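 note: 0% = vehicle wells and 100% = reference inhibitor control wells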
# Target sequence (P9WHJ3 whole entry, looked up, canonical isoform): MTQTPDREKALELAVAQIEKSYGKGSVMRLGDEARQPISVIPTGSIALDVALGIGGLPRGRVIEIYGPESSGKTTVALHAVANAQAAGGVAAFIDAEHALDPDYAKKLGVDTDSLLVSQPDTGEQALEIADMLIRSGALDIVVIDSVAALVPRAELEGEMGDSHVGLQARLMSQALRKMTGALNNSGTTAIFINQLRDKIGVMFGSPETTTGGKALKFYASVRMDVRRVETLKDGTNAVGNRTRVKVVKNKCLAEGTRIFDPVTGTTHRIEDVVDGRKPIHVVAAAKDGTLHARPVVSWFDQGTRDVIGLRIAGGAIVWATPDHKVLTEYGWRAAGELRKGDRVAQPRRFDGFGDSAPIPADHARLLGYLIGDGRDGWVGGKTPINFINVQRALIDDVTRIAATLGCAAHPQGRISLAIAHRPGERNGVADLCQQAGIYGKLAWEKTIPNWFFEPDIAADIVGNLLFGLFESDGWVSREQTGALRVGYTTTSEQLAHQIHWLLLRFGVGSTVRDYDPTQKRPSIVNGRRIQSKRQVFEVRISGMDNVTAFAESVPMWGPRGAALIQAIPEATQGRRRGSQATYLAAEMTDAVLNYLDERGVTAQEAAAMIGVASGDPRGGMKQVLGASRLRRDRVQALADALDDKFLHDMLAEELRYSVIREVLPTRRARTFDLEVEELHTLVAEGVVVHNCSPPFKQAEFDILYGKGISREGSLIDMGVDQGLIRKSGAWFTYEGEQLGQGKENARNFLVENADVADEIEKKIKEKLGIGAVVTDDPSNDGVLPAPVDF
# Arbovirus inh = antivirals against arbovirus infection; arbovirus infection cell-based antiviral screen; inhibition, % at 10 µM; actives 0.37% (n = 200,000); AID 1251;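 active = inhibition from about 30%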;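 note: bluetongue infection of BSR cells; cell survival read as ATP light after 72 h; 0% = infected wells without compound and 100% = uninfected wells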
# Mtb bLac sens = beta-lactam sensitization of Mtb H37Rv; M. tuberculosis H37Rv growth with meropenem, percent inhibition; hits of this screen are not shown here; inhibition, % at 25 µM; actives 0.27% (n = 330,000); AID 434955;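 active = about 74% or more and at least 40 points above the plate without the antibiotic, then above 30% in a dose series; inconclusive = first-round hits that could not be retested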;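 note: growth measured after seven days incubation then overnight dye step; 0% = bacteria only wells and 100% = bacteria with antibiotic; twin plates without the antibiotic show which effects depend on it; some results filed as inactive read as strong as hits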
# YopH inh = inhibitors of Yersinia enterocolitica YopH tyrosine phosphatase | fluorescence Ex485/Em525 | actives 0.16% (n = 140,000) | inhibition, %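 (about 10 µM by stock and volumes)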 | AID 898;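 active = inhibition of 50% or more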;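 note: controls were vehicle for no effect and minimum signal wells for full effect; inactives centre near -20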
# Mtb growth = M. tuberculosis H37Rv growth inhibitors, H37Rv strain (AID 1626) | M. tuberculosis H37Rv growth inhibition; higher % means a stronger effect | inhibition, % at 10 µM; hits with a dose series show IC50 in µM | actives 0.95% (n = 220,000);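 active = confirmed in a dose series; inconclusive = inhibition above 80% but not taken into the dose series; inactive = below 80% or under 30% at every dose of the series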;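 note: bacteria incubated seven days before Alamar blue readout; 0% = bacteria only wells and 100% = bacteria with antibiotic wells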
# Arbovirus inh repeat = also measured in Arbovirus inh; calls as there; inhibition, %; measured here: 10K subset replicate screen; many hits read low in the repeat;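 first of two repeat runs on a subset; 0% = infected and 100% = uninfected wells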
# * hit, by the source's call; u = inconclusive; x = not tested or not shown. These rows are one share of the data (hit frequency here may not be typical).
SMILES,RecA splice inh,Arbovirus inh,Mtb bLac sens,YopH inh,Mtb growth,others
Cc1cc(C)nc(NS(=O)(=O)c2ccc(NC(=O)c3ccccc3[N+](=O)[O-])cc2)n1,0.5,x,-4,x,x,
CCOC(=O)c1ccc(CSc2nnc(N)s2)cc1,-5.5,-1,-1,8,16%,
CCC1CCCCN1CCCNC(=O)Cn1nc(-c2ccccc2)ccc1=O (stereo not drawn),3.1,3,-4,-30,-7%,
Cc1ccc2c(CC(=O)OCc3csc(C)n3)coc2c1,1.1,4,-1,-6,-1%,
CSCCC(NS(=O)(=O)c1ccccc1)C(=O)OCc1nc2ccsc2c(=O)[nH]1 (stereo not drawn),-1.9,x,-2,x,x,
COC(=O)c1cn(-c2ccccc2)nc1-c1ccncc1,-4.8,0,-2,8,-3%,
O=C(CSc1nnc(COc2ccc(Cl)cc2)o1)OC1CCCCC1,-0.4,3,100,23,u,
CC(C)CC1c2[nH]c3ccccc3c2CCN1C(=O)c1cnccn1 (stereo not drawn),-2.8,18,-2,x,2%,
COc1ccc(CC(=O)N[C@@H](C)C(=O)N2CCC3(CC2)NCCc2[nH]cnc23)cc1,4.0,x,2,x,x,
Cc1ccc(OCCOCCNC(C)C)c(Br)c1,-2.6,1,-15,-37,-6%,
COc1ccc(CN(C)CC(=O)NC(=O)NCc2ccccc2)c(OC)c1,0.0,3,4,0,1%,
O=C1CC(c2ccco2)Sc2nc3ccccc3n21 (stereo not drawn),3.2,6,2,-54,-15%,Arbovirus inh repeat=11
CCN(c1cccc(C)c1)C1C(=O)c2ccccc2N1C(C)=O (stereo not drawn),1.4,x,0,x,x,
COc1ccc(-n2nc([N+](=O)[O-])c(=NCCc3cccc(C)c3)n2O)cc1,-1.3,-23,9,x,-7%,
CCOc1ccc(CN(C)c2nc(-c3cccnc3)nc3ccccc23)cc1OC,14,x,20,x,x,
O=C(O)c1ccc(NC(=O)c2cn(-c3ccccc3)nc2-c2ccc(Br)cc2)cc1,2.0,-13,9,x,12%,
CCc1ccc(-n2c(=O)c3ccccc3n(CC(=O)C(C)(C)C)c2=O)cc1,-4.8,3,4,x,5%,
O=C1CCc2cc(S(=O)(=O)NCCCC(=O)N3CCN(Cc4ccc5c(c4)OCO5)CC3)ccc2N1,0.0,0,0,x,2%,
COc1ccc(Cc2nnc(NC(=O)c3cc(OC)cc(OC)c3)s2)cc1,0.8,x,6,x,x,
CCCCn1c(N)c(N(CC(C)C)C(=O)CN(C)Cc2cccc(OC)c2)c(=O)[nH]c1=O,0.2,-4,-1,-12,-8%,
O=C(COC(=O)c1ccc(Cl)nc1)NCc1ccco1,-2.5,2,2,x,-3%,
O=c1c(=O)n(O)c2ccccc2n1O,-64,0,7,25,0%,
CCOC(=O)/C(C#N)=C/C1=C(N2CCCC2)CC(C)(CC)OC1 (stereo not drawn),2.8,-2,0,-28,-7%,
Oc1ccc(N2CCN(c3ccnc4cc(Cl)ccc34)CC2)cc1,-3.1,x,78,x,x,
CN=c1c([N+](=O)[O-])nn(-c2ccc3c(c2)OCCO3)n1O,-4.2,-22,79,x,56%,

# Ordered by heavy-atom count (rising): part of the list above
SMILES,RecA splice inh,Arbovirus inh,Mtb bLac sens,YopH inh,Mtb growth,others
O=c1c(=O)n(O)c2ccccc2n1O,-64,0,7,25,0%,
Cc1ccc(OCCOCCNC(C)C)c(Br)c1,-2.6,1,-15,-37,-6%,
O=C1CC(c2ccco2)Sc2nc3ccccc3n21 (stereo not drawn),3.2,6,2,-54,-15%,Arbovirus inh repeat=11
O=C(COC(=O)c1ccc(Cl)nc1)NCc1ccco1,-2.5,2,2,x,-3%,
COC(=O)c1cn(-c2ccccc2)nc1-c1ccncc1,-4.8,0,-2,8,-3%,
CCOC(=O)/C(C#N)=C/C1=C(N2CCCC2)CC(C)(CC)OC1 (stereo not drawn),2.8,-2,0,-28,-7%,
Oc1ccc(N2CCN(c3ccnc4cc(Cl)ccc34)CC2)cc1,-3.1,x,78,x,x,
CC(C)CC1c2[nH]c3ccccc3c2CCN1C(=O)c1cnccn1 (stereo not drawn),-2.8,18,-2,x,2%,
CCc1ccc(-n2c(=O)c3ccccc3n(CC(=O)C(C)(C)C)c2=O)cc1,-4.8,3,4,x,5%,
CCC1CCCCN1CCCNC(=O)Cn1nc(-c2ccccc2)ccc1=O (stereo not drawn),3.1,3,-4,-30,-7%,
CSCCC(NS(=O)(=O)c1ccccc1)C(=O)OCc1nc2ccsc2c(=O)[nH]1 (stereo not drawn),-1.9,x,-2,x,x,
CCOc1ccc(CN(C)c2nc(-c3cccnc3)nc3ccccc23)cc1OC,14,x,20,x,x,
CCCCn1c(N)c(N(CC(C)C)C(=O)CN(C)Cc2cccc(OC)c2)c(=O)[nH]c1=O,0.2,-4,-1,-12,-8%,
O=C1CCc2cc(S(=O)(=O)NCCCC(=O)N3CCN(Cc4ccc5c(c4)OCO5)CC3)ccc2N1,0.0,0,0,x,2%,

# Going on with the list.
SMILES,RecA splice inh,Arbovirus inh,Mtb bLac sens,YopH inh,Mtb growth,others
COC(=O)c1ccc(OC)c(CSc2nnc(COc3ccc(Cl)cc3)o2)c1,-1.0,9,4,4,0%,
CN1C(=O)CN=C(c2ccccc2)c2cc(Cl)ccc21,x,-4,x,x,1%,
COc1ccc(C(c2nnnn2CCc2ccccc2)N2CCN(C)CC2)cc1OC (stereo not drawn),-0.8,4,x,-18,0%,
CC(C)C(=O)N=C1NC(=O)CS1,x,3,-3,-23,-2%,
CN(C)c1cc(NC(=O)CN2CCCC2)c2ccccc2n1,x,x,-3,x,-2%,
Nn1c(SCC(=O)Nc2ccc3c(c2)OCCO3)nnc(CCC(=O)O)c1=O,-3.8,x,-7,x,x,
COCCCNC(=O)Cn1nc(-c2ccccc2OC)ccc1=O,1.3,9,-2,-149,x,
COc1ccc(-c2nc(CS(=O)CC(=O)NC3CCCC3)c(C)o2)cc1 (stereo not drawn),1.2,x,-2,x,x,
CCC(=O)NC(=S)Nc1ccc(-c2nc3ccccc3s2)cc1,2.7,3,x,-26,36%,
Cn1cccc1/C=C1\SC(=Nc2cccc(O)c2)NC1=O,0.9,x,-4,x,-6%,
Cc1cccc(NC(=O)CSCC(=O)Nc2nnc(C3CC3)s2)c1,-2.7,x,-10,x,x,
CN1CCN(C2CCCCCC2)CC1,-0.4,-10,-13,11,-4%,
O=c1[nH]nc(Cc2ccccn2)c2ccccc12,2.4,0,-2,-32,-2%,
COc1ccc(CC2SC(=Nc3ccc(F)cc3)NC2=O)cc1 (stereo not drawn),-4.6,8,1,x,-1%,
O=C(/C=C/NCc1ccc(F)cc1)c1ccccc1,0.1,1,-1,-30,3%,
COc1ccc(/C=C/C(=O)OCC(=O)Nc2ccc(Cl)c(S(=O)(=O)N(C)C)c2)cc1OC,2.6,1,9,-40,8%,
COc1ccc(C(=O)CCC(=O)Nc2cc(Cl)c(O)c(Cl)c2)cc1,1.4,x,5,x,x,
O=c1cc(-c2ccccc2)nc(SCc2ccc(F)cc2)[nH]1,0.7,3,-4,-27,-8%,
Cc1ccc2nc(SCC(=O)N/N=C/c3ccc(C(=O)O)cc3)cc(C)c2c1,2.6,x,-4,x,x,
Cc1cc2oc3c(c(=O)c2cc1C)C(c1cccc(Br)c1)N(Cc1ccco1)C3=O (stereo not drawn),0.2,-2,3,-59,5.9µM*,
O=C(CSc1nnnn1Cc1ccccc1)NC1CCCCC1,0.2,8,-12,x,-3%,
O=C(O)c1cnc(-c2ccccc2)nc1Sc1ccccc1Cl,x,43*,u,-31,1%,
CCc1ccc(C2NC(=S)NC3=C2C(=O)CCC3)cc1 (stereo not drawn),1.3,1,-2,-35,-4%,
COc1ccc(C(C(=O)NC2CCCCC2)N(C(=O)c2ccco2)c2ccccc2C(C)=O)cc1OC (stereo not drawn),3.5,x,6,x,x,
Cc1cccc(-n2c(CNC(=O)COc3ccccc3)nnc2SCC(=O)Nc2nccs2)c1,x,11,-7,-51,x,
# Further results:
SMILES,RecA splice inh,Arbovirus inh,Mtb bLac sens,YopH inh,Mtb growth,others
O=C1CC(=O)N(c2ccc(Cl)cc2)C(=O)N1,-2.6,x,0,x,x,
C#CCn1c(=O)c2c(ncn2C)n(C)c1=O,-3.5,x,0,x,-6%,
COc1ccc(CN(C)S(=O)(=O)c2nnc(NC(=O)c3cccc(C)c3)s2)cc1OC,-2.3,x,6,x,x,
CC(NC(=O)COC(=O)CCc1nc2ccccc2c(=O)[nH]1)c1ccccc1 (stereo not drawn),6.6,18,-3,x,-11%,
CCn1c2ccccc2c2cc(NC(=O)CSc3nnc(-c4ccc(OC)cc4)n3N)ccc21,0.1,-11,-1,-44,3%,
C#CCOCCOCCOCCNc1nc(N2CCN(C(=O)[C@H](CCCCN)n3cc(C(N)CO)nn3)CC2)nc(N2CCN(C(=O)[C@H](CCCCN)n3cc(C(N)COC(=O)C(F)(F)F)nn3)CC2)n1 (stereo partly drawn),-1.8,x,1,x,-6%,
O=C(CCc1nnc2ccc(N3CCC4(CC3)OCCO4)nn12)NCc1ccccc1Cl,-1.8,x,2,x,x,
C=CCn1c(COc2ccccc2C)nnc1SCC(=O)O,-1.1,2,24,-19,-8%,
On1c(-c2ccc(Cl)cc2Cl)nc2ncccc21,-0.2,x,0,x,x,
CCC1(C)CC(C(CC(=O)O)c2ccc(C)cc2)CCO1 (stereo not drawn),0.8,-2,6,-19,7%,
CC[n+]1c(/C=C2\C=C(C)CC(C)(C)C2)sc2ccccc21,47*,9,0,-35,1%,
Cc1ccc(CNC(=O)CCC(=O)N2CC(C)Oc3ccccc32)cc1 (stereo not drawn),-0.4,x,-3,x,x,
COc1ccccc1N1CCN(CC(O)c2c(C)[nH]c3ccccc23)CC1 (stereo not drawn),-1.6,x,5,x,x,
Cc1ccc(OCc2ccc(C(=O)N3CCCC3)o2)c([N+](=O)[O-])c1,0.3,x,7,x,x,
CCn1c(SCC(=O)N/N=C/c2ccc(C)o2)nnc1-c1ccc(C(C)(C)C)cc1,-1.6,-7,-6,-13,0%,
Cc1ccc(S(=O)(=O)N2CCN(C(=O)N3CCCC3)CC2)cc1,-0.8,x,4,x,x,
c1csc(-c2nn[nH]n2)c1,-2.4,3,-10,-42,-5%,
CCc1cc2cc3c(cc2nc1SCC(=O)N1CCN(C(=O)c2ccco2)CC1)OCO3,-0.1,-6,-4,-30,14%,
COC(=O)c1nnn(-c2nonc2N)c1CSc1ccc(Cl)cc1,4.6,4,-9,-7,-8%,
CCCNC(=O)OCC12CC3CC(CC(C3)C1)C2,4.0,9,9,-22,1%,
O=[N+]([O-])c1ccc(S(=O)(=O)Nc2cccc(-c3ccc(N4CCOCC4)nn3)c2)cc1,0.0,x,0,x,x,
COc1cc(NS(=O)(=O)c2cn(C)cn2)cc(OC)c1,4.6,x,-4,x,x,
O=C(NCc1ccco1)c1nnc(Cc2ccc(F)cc2)o1,-1.3,2,-3,-17,7%,Arbovirus inh repeat=-1
c1ccc(C(c2ccccc2)N2CCN(Cc3nnnn3C3CCCC3)CC2)cc1,20,-24,3,-34,-6%,
Cc1cccc(CCNC(=O)C2CCN(S(=O)(=O)c3cccc4cccnc34)CC2)c1,2.6,x,-5,x,x,
CN(CC(=O)Nc1ccc(Cl)c(Cl)c1)C(=O)CC1OC(=O)c2ccccc21 (stereo not drawn),-0.3,x,-8,x,x,

# Reprinted at random: three records from the list.
SMILES,RecA splice inh,Arbovirus inh,Mtb bLac sens,YopH inh,Mtb growth,others
CCC1(C)CC(C(CC(=O)O)c2ccc(C)cc2)CCO1 (stereo not drawn),0.8,-2,6,-19,7%,
O=C1CC(=O)N(c2ccc(Cl)cc2)C(=O)N1,-2.6,x,0,x,x,
CCCNC(=O)OCC12CC3CC(CC(C3)C1)C2,4.0,9,9,-22,1%,
